# HSV augment = HSV replication enhancement | HSV replication augmentation in cells, fold increase | maximum fold increase | actives 0.005% (n = 220,000) | AID 1956;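 active means peak rise of 1.5-fold or more in the series; inconclusive means self-fluorescent or not available for retest; tested in PC3 cells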;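 further: first round at 10 µM; read as green reporter fluorescence; hits show the peak of a series up to 25 µM; 1 = signal of infected wells without compound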
# PKD1 inh = blocks activity of human protein kinase D1; Q15139; AID 797; PKD1 kinase fluorescence polarization assay; inhibition, %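 (about 10 µM by stock and volumes)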; actives 0.056% (n = 200,000);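 active means inhibition of 50% or more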;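 further: controls were vehicle for no effect and a reference inhibitor for full effect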
# INS promoter inh = TRM-6 insulin promoter activity inhibition; AID 1273; TRM-6 cells (human fetal islet line), insulin promoter-eGFP reporter, imaging; reporter expression induced with tamoxifen; actives 0.9% (n = 130,000); inhibition, % at 2 µM;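 active means inhibition above the mean plus 3 SD, with well images judged a real hit on visual review, cut at about 60% in these data, passing the limit was not always enough; inconclusive means inhibition over the cutoff but images rejected on review; inactive means inhibition not above the cutoff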
# GALR2 agonist = GALR2 (human) receptor agonism; O43603; GALR2-expressing cells, agonist activation read-out; activation, %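 (tested at 5 µM)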; actives 0.48% (n = 140,000);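 active means above mean plus 3 SD of all compounds, about 5% in these data, not always enough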;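 further: 0% = vehicle buffer wells and 100% = reference agonist at full effect; tested in CHO reporter cells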
# Target sequence (O43603 whole entry, looked up): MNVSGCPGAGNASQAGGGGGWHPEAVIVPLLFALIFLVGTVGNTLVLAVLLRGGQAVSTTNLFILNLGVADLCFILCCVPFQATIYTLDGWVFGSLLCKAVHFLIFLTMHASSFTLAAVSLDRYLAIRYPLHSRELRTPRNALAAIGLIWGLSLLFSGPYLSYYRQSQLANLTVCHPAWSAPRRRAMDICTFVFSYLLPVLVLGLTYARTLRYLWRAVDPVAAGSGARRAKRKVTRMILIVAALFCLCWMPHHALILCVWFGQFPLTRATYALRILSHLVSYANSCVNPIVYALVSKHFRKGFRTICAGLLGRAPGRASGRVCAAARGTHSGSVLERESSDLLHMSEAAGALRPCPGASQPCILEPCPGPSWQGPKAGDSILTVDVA
# RGS16-Gao HTS = regulators of human RGS16-Galphao interaction | bead-based flow cytometry RGS16-Galphao binding, fluorescence; actives lie on both sides | binding response (% of control), % at 10 µM | actives 0.38% (n = 220,000);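 active means below 25% or above 175%, edge rows of some plates excepted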;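 further: Galphao activated by GDP with aluminum fluoride before binding; 100% = wells without compound and 0% = beads without RGS; some results beyond the cut were filed as inactive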
# Target sequence (O15492 whole entry, looked up): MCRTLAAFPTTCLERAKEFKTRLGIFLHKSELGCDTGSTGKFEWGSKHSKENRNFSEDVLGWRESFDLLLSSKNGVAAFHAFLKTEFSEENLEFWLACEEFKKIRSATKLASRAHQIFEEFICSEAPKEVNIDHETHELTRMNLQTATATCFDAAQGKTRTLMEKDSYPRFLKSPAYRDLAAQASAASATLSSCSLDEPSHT
# Target sequence (P09471 whole entry, looked up): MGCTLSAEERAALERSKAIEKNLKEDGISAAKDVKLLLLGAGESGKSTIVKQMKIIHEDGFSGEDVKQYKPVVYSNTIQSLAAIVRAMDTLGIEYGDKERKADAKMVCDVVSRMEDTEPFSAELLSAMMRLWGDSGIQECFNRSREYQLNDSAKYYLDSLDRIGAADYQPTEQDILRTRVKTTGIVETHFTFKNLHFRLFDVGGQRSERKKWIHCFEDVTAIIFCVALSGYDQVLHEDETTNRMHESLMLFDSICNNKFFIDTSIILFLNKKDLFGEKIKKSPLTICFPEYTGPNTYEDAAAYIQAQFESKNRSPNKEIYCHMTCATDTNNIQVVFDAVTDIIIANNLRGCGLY
# INS promoter inh cell count = second read-out of INS promoter inh, no call of its own (marks repeat the call); normalized cell count, %; measured here: cell count, toxicity; reference of the scale not given here;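 cells exposed to compound for 48 h; stained nuclei by imaging scaled within each plate; lower means fewer cells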
# HSV augment primary fold = further read-out of HSV augment, marked with its call; fold increase; compound at 10 µM; measured here: primary screen fold increase 10 uM; tested in PC3 cells;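 GFP signal in the first replicate; 1 = infected wells without compound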
# The depositor's hits bear a star; i = inactive; ? = inconclusive; · = not tested or not shown; [ ] = dose if it differs, or a comment.
SMILES,INS promoter inh cell count,INS promoter inh,HSV augment primary fold,RGS16-Gao HTS,PKD1 inh,HSV augment,GALR2 agonist
O=C1CC(c2ccncc2)c2cc3c(cc2N1)OCCO3 (stereo unspecified),88,-17,0.96,105,-2,i,-1.9
Cc1ccccc1C(=O)Nc1cccc(C#N)c1,129,-394,0.98,100,9,i,-1.0
COC(CNC(=O)c1ccc2c(c1)ncn2-c1ccc(F)cc1F)OC,87,14,0.95,101,-6,i,·
COCCCNC(=O)c1sc2ncn(CC(=O)Nc3ccc(C)c(Cl)c3)c(=O)c2c1C,·,·,1,101,-4,i,·
Clc1ccc(SCCOCCN2CCCCC2)cc1,122,23,·,99,12,·,-1.3
Cc1c(Cl)c(-c2n[nH]c(=S)n2CC(C)C)nn1C,101,-29,1,98,-9,i,-2.5
COc1cccc(/C=N/n2c(-c3n[nH]c4c3CCC4)n[nH]c2=S)c1OC,·,·,1.1,95,·,i,·
COc1cccc(-c2nc(Oc3cccc(C)c3C)c3ccccc3n2)c1O,·,·,0.98,108,-4,i,-0.6
COc1ccc(-c2csc(Cc3nc(O)cs3)n2)cc1,117,-27,0.79,106,-2,i,·
Cc1cc(NC(=O)CN2CC(C)OC(C)C2)n(-c2nc3ccccc3s2)n1 (stereo unspecified),29,-31,1,107,0,i,-1.7
CCOC(=O)CC1(CC(=O)OCC)NC(=O)c2c(C)sc(C(=O)OCC)c2N1,98,-61,0.99,102,-4,i,-0.6
Cc1cc(C)cc(-n2cc[nH]c2=S)c1,97,50,0.97,86,-3,i,-0.9
O=C(COC(=O)CCc1nc2ccccc2c(=O)[nH]1)Nc1ccc(N2CCOCC2)cc1,·,·,1,103,·,i,·
Cc1ccc(/C=N/N=C2/NC(=O)C(CC(=O)Nc3ccccc3)S2)o1 (stereo unspecified),·,·,0.96,101,2,i,·
CCCCNC(=O)c1nn2cc(Br)cnc2c1Br,·,·,0.97,97,-4,i,·
Cc1nn(-c2ccccc2)c(C)c1/C=N/N1CCN(c2ccccc2)CC1,114,30,1,99,-12,i,-0.2
CCN(C(=S)NC(=O)C1CCCC1)C1CCCCC1,·,·,1,100,3,i,·
O=C(Nc1ccc(Cl)c(-c2nc3ccccc3[nH]2)c1)c1ccc2c(c1)OCO2,63,-33,0.7,215*[activator],-1,i,-0.2
c1ccc2c(c1)ccc1nnc(SCc3ccc4c(c3)OCCO4)n12,·,·,0.83,107,-11,i,-0.3
CCC(=O)NC(c1cccc([N+](=O)[O-])c1)c1c(OC(C)=O)ccc2ccccc12 (stereo unspecified),130,-19,1,111,-13,i,-1.7
CCOC(=O)CNC(=O)N1CCCC(CCC(=O)NCc2ccc(F)c(F)c2)C1 (stereo unspecified),·,·,1.1,103,-3,i,·
Cc1nn(Cc2ccc(Cl)cc2)c(Cl)c1/C=N/NC(=O)c1cccnc1,110,35,0.92,122,1,i,-0.8
O=C(Nc1ccc(NC(=O)c2cccs2)cc1)c1ccco1,173,13,0.86,101,-4,i,-2.9
CCOC(=O)CSc1n[nH]c(NS(=O)(=O)c2ccccc2C(F)(F)F)n1,157,-11,1.1,100,4,i,·
Cc1c(-c2ccccc2)sc(N)c1C(=O)N1CCOCC1,·,·,0.99,89,-9,i,-0.1
COC(=O)CN(n1cnnc1)S(=O)(=O)c1ccccc1,·,·,1.1,41,-3,i,-0.5
O=C(O)c1ccc2c(c1)N(Cc1ccc(F)cc1)C(=O)c1ccccc1S2,81,-21,1.1,104,-4,i,·
N#C/C(=C\c1ccc(F)cc1)c1nc(-c2ccco2)cs1,119,-17,·,91,-19,?,0.6
Cn1nc(-c2ccc(OCC(N)=O)cc2)c2ccccc2c1=O,96,-6,0.85,98,1,i,-1.4
Fc1ccc(-c2ccc(Nc3cccc(F)c3)nn2)cc1,·,·,0.65,113,-6,i,·
CCCCC(CC)Cn1c(N)c(C#N)c2nc3ccccc3nc21 (stereo unspecified),130,-43,1.1,100,3,i,35*
Cn1c(NC(=O)c2ccc(Cl)s2)cc(=O)n(C)c1=O,98,31,0.99,105,-4,i,0.9
CC1CCC/C(=C(\C#N)c2nc(-c3cc4ccccc4oc3=O)cs2)C1 (stereo unspecified),·,·,0.99,100,-3,i,-0.6
CCOC(=O)N1CCC(Nc2ncnc3c2cnn3-c2ccc(C)cc2C)CC1,·,·,0.85,146,7,i,-0.9
C=CCC(NCc1ccccc1)c1ccco1 (stereo unspecified),127,-19,0.98,105,-3,i,-1.8
NNC(=O)c1cc(O)c(O)c(O)c1,·,·,1.1,63,8,i,·
CC(=O)NCCCc1nc2ccccc2n1Cc1c(F)cccc1Cl,·,·,0.96,107,·,i,·
CC(C)(C)c1cnnn1-c1ccc([N+](=O)[O-])cc1,·,·,0.98,98,-5,i,·
CC(NC(=O)c1ccc(-c2cc(C(F)(F)F)ccc2Cl)o1)c1ccccc1 (stereo unspecified),134,8,1,99,1,i,-1.2
O=C(CCc1nnc(CCCCc2ccccc2)o1)NCc1cccc(F)c1,175,-83,1.1,87,-6,i,·

# Fetched by structure from above, six records:
SMILES,INS promoter inh cell count,INS promoter inh,HSV augment primary fold,RGS16-Gao HTS,PKD1 inh,HSV augment,GALR2 agonist
CCOC(=O)N1CCC(Nc2ncnc3c2cnn3-c2ccc(C)cc2C)CC1,·,·,0.85,146,7,i,-0.9
COC(=O)CN(n1cnnc1)S(=O)(=O)c1ccccc1,·,·,1.1,41,-3,i,-0.5
CCOC(=O)CSc1n[nH]c(NS(=O)(=O)c2ccccc2C(F)(F)F)n1,157,-11,1.1,100,4,i,·
Fc1ccc(-c2ccc(Nc3cccc(F)c3)nn2)cc1,·,·,0.65,113,-6,i,·
O=C(Nc1ccc(NC(=O)c2cccs2)cc1)c1ccco1,173,13,0.86,101,-4,i,-2.9
O=C(CCc1nnc(CCCCc2ccccc2)o1)NCc1cccc(F)c1,175,-83,1.1,87,-6,i,·

# Arranged by SMILES length (rising): some entries from above
SMILES,INS promoter inh cell count,INS promoter inh,HSV augment primary fold,RGS16-Gao HTS,PKD1 inh,HSV augment,GALR2 agonist
Cc1c(-c2ccccc2)sc(N)c1C(=O)N1CCOCC1,·,·,0.99,89,-9,i,-0.1
O=C(Nc1ccc(NC(=O)c2cccs2)cc1)c1ccco1,173,13,0.86,101,-4,i,-2.9
CCCCC(CC)Cn1c(N)c(C#N)c2nc3ccccc3nc21 (stereo unspecified),130,-43,1.1,100,3,i,35*

# Next compounds
SMILES,INS promoter inh cell count,INS promoter inh,HSV augment primary fold,RGS16-Gao HTS,PKD1 inh,HSV augment,GALR2 agonist
Cn1cnc([N+](=O)[O-])c1Sc1ccccc1,150,39,0.91,103,-9,i,-2.5
Cc1cccc(C(=O)NCCc2n[nH]c(=S)n2C)c1,124,23,1,99,-1,i,-1.9
Cc1ccc(NS(=O)(=O)c2ccccc2Cl)c2c1CC(C)(C)O2,100,-10,0.9,89,-4,i,-0.8
CN(Cc1ccccc1)C(=O)C1CCCN1S(=O)(=O)c1ccc2c(c1)n(C)c(=O)c(=O)n2C (stereo unspecified),·,·,0.92,102,·,i,·
COC(=O)c1c(NC(=O)c2ccc(S(=O)(=O)N3CCOCC3)cc2)sc2c1CCN(C)C2,74,-284,0.79,104,-5,i,1.0
O=C(CC1SC(=Nc2ccccc2)N(Cc2ccccn2)C1=O)Nc1ccc(Br)cc1 (stereo unspecified),·,·,1,104,-2,i,-0.3
CCOC(=O)c1c(C)n(-c2ccc(OC)cc2)c2ccc(O)c(CN(C)C)c12,·,·,0.71,106,·,i,·
CCOc1ccc(CCNC(=O)COC(=O)c2ccco2)cc1OCC,98,0,0.92,103,2,i,-2.7
Cc1cccc(OCC(=O)NC(C)C(=O)N/N=C/c2c(OCc3ccccc3)ccc3ccccc23)c1 (stereo unspecified),93,13,0.95,101,0,i,-1.1
Cc1ccc(N/N=C(\C#N)C(=O)c2ccsc2)cc1,·,·,1.1,104,·,i,·
Cc1c(=O)n(OCc2ccccc2)c2ccccc2[n+]1[O-],80,-356,3.6,125,-11,i,-1.6
COc1ccc(-c2nnc(SCC(=O)Nc3ccc(Cl)cc3)n2C)cc1,170,-10,1,102,-1,i,-1.3
CCCCc1c(C)c(C#N)c2[nH]c3ccccc3n2c1=O,74,53,0.94,104,-8,i,-1.1
COCCNC(=O)Cn1nc(C(F)(F)F)c(Cl)c1C,119,-7,0.93,101,-3,i,-3.6
CCCS(=O)(=O)N1CCCC(C(=O)NCc2ccc3c(c2)OCO3)C1 (stereo unspecified),·,·,0.97,98,-8,i,-1.4
Cc1nnc2n(c1=O)C(CS(=O)(=O)c1ccc3ccccc3c1)CS2 (stereo unspecified),68,60,1.1,97,-2,i,·
CC/C(=N/OC(=O)c1cccc(C)c1)C(=O)c1cccs1,·,·,0.91,96,-2,i,·
COc1cc(OC)c(C(=O)OCC(=O)Nc2cc(C)on2)cc1OC,·,·,1,101,5,i,·
CCCCN(C)CCCNC(=O)C1CC(=O)N(Cc2ccc(OC)cc2)C1 (stereo unspecified),135,-62,1,103,-1,i,-0.1
CCOC(=O)C1=C(C)NC(=O)C(C#N)C1c1ccncc1 (stereo unspecified),·,·,1.1,171,-2,i,-0.6
O=C(c1cc2sccc2n1Cc1ccc(F)cc1)N1CCN(c2nc3ccccc3s2)CC1,98,44,0.7,110,1,i,-1.2
Cc1ccc(C(=O)N/C(=C/c2cccnc2)C(=O)O)cc1,81,-14,0.98,100,6,i,-1.0
COC(=O)c1ccccc1N1C(=O)C2C(C1=O)C1C=CC2C12CC2 (stereo unspecified),116,-164,1.1,102,-3,i,-0.9
CCn1c(C)cc(/C=C2\NC(=O)N(CC(=O)Nc3cccc(C)c3)C2=O)c1C,69,23,0.93,99,-16,i,-1.9
CC(=O)Nc1sc2c(c1C#N)CCC2,·,·,1,101,0,i,·
Cc1ccc(OCCN(C)C(=O)CC2C(=O)NCCN2CC(C)(C)C)cc1 (stereo unspecified),111,36,0.95,111,4,i,·
COC(=O)c1c(NC(NC(=O)C(C)(C)C)C(Cl)(Cl)Cl)sc2c1CCC2 (stereo unspecified),·,·,0.85,101,-1,i,-3.7
c1ccc2nc(SCc3cn4ccccc4n3)cnc2c1,·,·,1,98,-4,i,·
CC(C)CC(C(=O)OCC(=O)c1c(N)n(C)c(=O)n(C)c1=O)N1C(=O)C2CC=CCC2C1=O (stereo unspecified),·,·,0.95,104,-6,i,·
CCOC(=O)c1ccc(N/C(=N\S(=O)(=O)c2ccc(F)cc2F)c2ccccc2)cc1,·,·,1.1,101,0,i,1.1
Cc1ccc2c(c1)N(C(C)C(=O)NCc1ccccn1)C(=O)CO2 (stereo unspecified),·,·,0.96,107,·,i,·
Cc1sc2ncnc(SCC(=O)N(C)C3CCS(=O)(=O)C3)c2c1C (stereo unspecified),110,0,0.95,102,-5,i,·
NC(=O)CNc1ncc(C(F)(F)F)cc1Cl,33,-11,0.9,116,1,i,·
O=C(CSc1nnc(-c2cccs2)n1-c1cccc(Cl)c1)c1cccc2c1OCCO2,83,62,0.93,98,-5,i,-2.0
CC(OC(=O)C1=Cc2ccccc2OC1)C(=O)NCc1ccco1 (stereo unspecified),126,-18,1,80,0,i,·
O=C(O)C1C2C=CC(C2)C1C(=O)NCCc1ccccc1 (stereo unspecified),154,-25,0.78,99,-7,i,-0.2
CC1CCN(c2c([N+](=O)[O-])c(=O)oc3ccccc23)CC1,176,14,0.85,104,-2,i,-0.8
COc1ccccc1NC(=O)c1cc2ccc(O)cc2o/c1=N\O,·,·,·,38,20,·,0.6
COC(=O)c1ccccc1Oc1nc(Cl)cc(OC)n1,163,44,0.96,94,-6,i,-1.1
Cc1ccccc1S(=O)(=O)Cc1ccc(C(=O)NCCCOC(C)C)o1,·,·,0.89,95,5,i,-2.5
Clc1ccc(-c2csc3ncnc(NCCN4CCOCC4)c23)cc1,102,-7,0.9,98,-10,i,-0.5
O=C(c1ccc(NS(=O)(=O)c2ccc3c(c2)OCCO3)cc1)N1CCCCC1,·,·,·,99,·,?,·
O=C(NC1CCCCC1)C(c1ccco1)N(Cc1cccnc1)C(=O)C1COc2ccccc2O1 (stereo unspecified),65,-7,0.96,100,-14,i,-0.8
COc1cc2c(cc1NC(=O)COC(=O)Cn1cnc3ccccc31)oc1ccccc12,·,·,·,97,3,·,-1.8
CCC(Sc1nc2ccccc2o1)C(=O)Nc1nnc(C)s1 (stereo unspecified),101,-7,0.89,40,-5,i,-0.5

# Source: PubChem
